D2 PAM: human D2 receptor positive allosteric modulation; P14416; DiscoveRx D2 beta-arrestin cells, luminescence, 90 min; 100% = 57 uM dopamine signal; potentiation, % (concentration not given with the values); 0.23% of 360,000 active; active = potentiation of 50% or more; inconclusive = 30% to 50%; inactive = 30% or less;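 further: compound concentration not given in the record; tested on top of an EC20 dose of dopamine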
Target sequence (P14416 whole entry, looked up): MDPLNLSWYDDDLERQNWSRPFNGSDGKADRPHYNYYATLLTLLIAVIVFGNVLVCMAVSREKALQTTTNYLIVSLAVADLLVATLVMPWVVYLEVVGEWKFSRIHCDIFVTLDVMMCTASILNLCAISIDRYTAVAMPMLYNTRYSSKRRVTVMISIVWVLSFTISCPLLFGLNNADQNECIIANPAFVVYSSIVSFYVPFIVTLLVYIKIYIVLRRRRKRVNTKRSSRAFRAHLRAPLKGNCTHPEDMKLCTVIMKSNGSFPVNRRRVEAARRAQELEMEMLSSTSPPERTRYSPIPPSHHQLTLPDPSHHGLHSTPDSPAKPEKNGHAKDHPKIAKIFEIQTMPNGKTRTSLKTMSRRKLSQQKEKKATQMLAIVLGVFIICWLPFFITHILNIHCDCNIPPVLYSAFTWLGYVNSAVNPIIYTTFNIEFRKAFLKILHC
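D2 cells co-treated with compound plus 50 nM dopamine (EC20) for 90 min at 37 deg C to detect potentiation. Beta-arrestin recruitment was read as enzyme-fragment luminescence after 1 h at ambient temperature. Full response was set by 57 uM dopamine.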
Six1-Eya2 blk: inhibitors of human Six1/Eya2 interaction; Q15475+O00167; AlphaScreen GST-Six1/His-Eya2 binding, biochemical; stronger effect = lower value; control for the full effect not named in the record; activity change, % (no concentration beside the values); 0.56% of 360,000 active; AID 651725; in the data active = activity change below about -65%; inconclusive = about -30% to -65%; inactive = above about -30%; further: on the % scale 0 is the no-effect control and ±100 the full control effect; compound concentration not given in the record
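AlphaScreen with GST-Six1 and His-Eya2 (5X mix: 250 nM and 500 nM), glutathione donor and nickel acceptor beads; buffer 50 mM Tris pH 8.0, 300 mM NaCl, 1 mM TCEP; 1 h at 37 C in the dark.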
TRPV1 potentiator: human TRPV1 potentiation. TRPV1-expressing cells, Fluo-8 calcium influx, capsaicin EC20 potentiation; host cell line not named in the record; control for the full effect not named in the record. 0.02% of 320,000 active. AID 540277. potentiation, % at 8.33 µM; active means potentiation above 80%; inconclusive means 30% to 80%; inactive means below 30%; further: 0% is about no effect
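TRPV1-expressing cells were cultured overnight at 35.5C and loaded with Fluo-8 calcium dye for 40 to 90 min at room temperature. After a 10 s baseline, compound was added and calcium influx was read kinetically for 3 min (ex 480/em 520 nm).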
TRPML1 agonist: activates the human TRPML1 channel; Q9GZU1; TRPML1-expressing cells, Ca2+ dye fluorescence, FDSS; host cell line not named in the record; reference of the full effect not given here; activation, % (concentration not given with the values); 0.12% of 410,000 active; AID 624414; in the data active = activation above about 50%; inconclusive = about 30% to 50%; inactive = below about 30%; further: 0% is about no effect; the text of the record puts the active cut at 80%
Target sequence (Q9GZU1 whole entry, looked up): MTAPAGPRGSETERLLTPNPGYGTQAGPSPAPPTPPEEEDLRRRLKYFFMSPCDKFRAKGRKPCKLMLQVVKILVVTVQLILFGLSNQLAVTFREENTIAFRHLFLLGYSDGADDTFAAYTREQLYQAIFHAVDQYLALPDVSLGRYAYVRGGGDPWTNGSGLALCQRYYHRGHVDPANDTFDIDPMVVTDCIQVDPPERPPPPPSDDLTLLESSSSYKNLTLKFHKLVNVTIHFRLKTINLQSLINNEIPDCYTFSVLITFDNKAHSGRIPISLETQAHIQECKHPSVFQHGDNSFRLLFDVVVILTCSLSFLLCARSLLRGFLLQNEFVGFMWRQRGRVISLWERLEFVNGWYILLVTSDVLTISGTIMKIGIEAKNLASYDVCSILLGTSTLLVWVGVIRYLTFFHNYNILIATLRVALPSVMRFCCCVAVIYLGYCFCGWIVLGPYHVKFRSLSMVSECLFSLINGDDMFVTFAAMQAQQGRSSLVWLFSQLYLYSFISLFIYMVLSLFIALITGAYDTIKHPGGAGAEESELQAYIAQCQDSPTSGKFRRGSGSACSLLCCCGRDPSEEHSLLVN
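Calcium fluorescence on an FDSS kinetic reader gave the read-out. Tet-induced TRPML1-DL cells were plated overnight, dye-loaded (Ca8 with quencher, 45-90 min, room temperature, dark), then read 110 s after compound addition, and again 110 s after 4uM final 54-4 (EC80).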
TRPML1 inh: blocks the human TRPML1 channel; Q9GZU1; TRPML1-inducible cells, Ca2+ dye fluorescence, FDSS; stronger effect = lower value; inhibition of EC80 agonist-evoked calcium signal; activity change, negative = inhibition, % (test concentration not listed); 0.02% of 390,000 active; in the data active means activity change below about -50%; inconclusive means about -30% to -50%; inactive means above about -30%;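 further: stimulus is agonist 54-4 at its EC80 concentration; on the % scale 0 is the no-effect control and ±100 the full control effect; compound concentration not given in the record; the text of the record puts the active cut at -80%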
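Calcium fluorescence in TRPML1-DL cells induced overnight with Tet: a 110 s read after compound pin addition, then a 110 s antagonist read after challenge with 54-4 at 4 uM final (EC80).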
CtBP-E1A inh: blocks the CtBP interaction with E1A; activity change, % (no concentration beside the values); AID 651724; 0.49% of 340,000 active; AlphaScreen GST-E1A/His-CtBP binding, 1536-well; stronger effect = lower value; control for the full effect not named in the record; in the data active means activity change below about -65%; inconclusive means about -30% to -65%; inactive means above about -30%; further: on the % scale 0 is the no-effect control and ±100 the full control effect; compound concentration not given in the record
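Homogeneous bead-based format: GST-tagged E1A captured on glutathione donor beads, His-tagged CtBP on nickel acceptor beads; compounds precede bead addition by 2 h at 37 °C.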
Numbers without * were called inactive; u = inconclusive; x = no result given; & = joins results of further samples. An excerpt; count on the stated rates, not on these rows.

SMILES | D2 PAM | Six1-Eya2 blk | TRPV1 potentiator | TRPML1 agonist | TRPML1 inh | CtBP-E1A inh
CCN1C[C@]2(CO)CC[C@H](OC)[C@@]34C5C[C@H]6[C@H](OC)C5[C@](O)(C[C@H]6OC)[C@@H](C(OC)C23)[C@@H]14 (stereo partly drawn) | -5 | 0 | x | x | x | -2
O=C(c1ccccc1)c1cn(CC(=O)N2CCCc3ccccc32)c2ccccc12 | -7 | -5 | -18 | 0.5 | 51 | -7
CN1C(=O)N(C)C(=O)C(NS(=O)(=O)c2ccc(N)cc2)(c2ccccc2)C1=O | -1 | 4 | x | 0.0 | -13 | 10
Cc1c(Br)c(=O)oc2cc(OCC(=O)N3C[C@H]4C[C@@H](C3)c3cccc(=O)n3C4)ccc12 | -17 | -4 | 0 | x | x | -11
COc1ccc(NP(=O)(Nc2ccc(OC)cc2)Oc2ccccc2)cc1 | -5 | -4 | 8 | 2.8 | 4 | 2
CC(=O)O[C@H]1C(=O)[C@@]2(C)C([C@H](OC(=O)c3ccccc3)[C@]3(O)C[C@H](OC(=O)[C@H](O)[C@@H](NC(=O)Cc4ccccc4)c4ccccc4)C(C)=C1C3(C)C)[C@]1(OC(C)=O)CO[C@@H]1C[C@@H]2O (stereo partly drawn) | -5 | -6 | -3 | 0.4 | 3 | -7
CCOC(=O)CC1=C(C(=O)OCC)C2(C(=O)Nc3ccccc32)C(C#N)=C(N)O1 (stereo not drawn) | 75* | 4 | 0 | 0.4 | -17 | 3
COC(=O)C1=C(c2cccc(OCc3ccccc3)c2)C[C@@H]2CC[C@H]1N2C(=O)NCCOc1ccccc1 | -16 | -4 | -16 | 1.2 | 4 | -8
c1ccc2[nH]c(CCN3CCCCC3)nc2c1 | -24 | 8 | x | 0.2 | -1 | -5
Cc1ccc2c(c1)c(=O)c1c3n2CCN(CC2CO2)C3CC1 (stereo not drawn) | 9 | 14 | 3 | 0.8 | -17 | 0
CCOP(=O)(OCC)c1cc(C)c(O)c(C(C)(C)C)c1 | -10 | 1 | -3 | 0.9 | -1 | 3
COc1ccc(N2CCN(C(CNC(=O)Oc3ccccc3)c3cccnc3)CC2)cc1 (stereo not drawn) | 7 | -4 | 8 | 0.2 | -6 | 7
Nc1ccc(Br)cc1C(=O)c1ccccc1 | -4 | -9 | -1 | 1.6 | 1 | 8
O=C(O)C1(c2ccc(Cl)cc2)CCC1 | 10 | 17 | -25 | -0.4 | 6 | 2
C#CCOC(=O)C1=CCCN(C)C1 | -11 | 0 | 2 | 0.3 | -4 | -16
CN(C)c1ccc(C2C3C=CC(C3)C2(C#N)C(=O)O)c(Br)c1 (stereo not drawn) | -6 | 11 | 6 | -0.8 | -10 | 24
COC(=O)C1=C(c2cccc(C#N)c2)C[C@@H]2CC[C@H]1N2C(=O)NCc1cccc2ccccc12 | -3 | -4 | 4 | 1.8 | 22 | 4
CC(=O)N1CC(=O)Nc2ccc(Br)cc2C1c1ccc(F)cc1 (stereo not drawn) | -5 | 0 | 4 | x | x | -4
COc1ccc(-n2nnnc2C(CCSC)N2CCC(n3c(=O)[nH]c4ccccc43)CC2)cc1 (stereo not drawn) | u | -22 | x | -0.4 | x | -7
CCOC(=O)[C@]12Cc3c(cc(OC)c(OC)c3OC)[C@H]1N(C(C)C)C(=O)c1cc(OC)ccc12 | x | -7 | x | -1.1 | x | 0

Part of the list above, with values under each structure:
Every second line gives: D2 PAM, Six1-Eya2 blk, TRPV1 potentiator, TRPML1 agonist, TRPML1 inh, CtBP-E1A inh
CN1C(=O)N(C)C(=O)C(NS(=O)(=O)c2ccc(N)cc2)(c2ccccc2)C1=O
→ -1, 4, x, 0.0, -13, 10
Cc1c(Br)c(=O)oc2cc(OCC(=O)N3C[C@H]4C[C@@H](C3)c3cccc(=O)n3C4)ccc12
→ -17, -4, 0, x, x, -11
COc1ccc(NP(=O)(Nc2ccc(OC)cc2)Oc2ccccc2)cc1
→ -5, -4, 8, 2.8, 4, 2
CC(=O)O[C@H]1C(=O)[C@@]2(C)C([C@H](OC(=O)c3ccccc3)[C@]3(O)C[C@H](OC(=O)[C@H](O)[C@@H](NC(=O)Cc4ccccc4)c4ccccc4)C(C)=C1C3(C)C)[C@]1(OC(C)=O)CO[C@@H]1C[C@@H]2O (stereo partly drawn)
→ -5, -6, -3, 0.4, 3, -7
CCOC(=O)CC1=C(C(=O)OCC)C2(C(=O)Nc3ccccc32)C(C#N)=C(N)O1 (stereo not drawn)
→ 75*, 4, 0, 0.4, -17, 3
COC(=O)C1=C(c2cccc(OCc3ccccc3)c2)C[C@@H]2CC[C@H]1N2C(=O)NCCOc1ccccc1
→ -16, -4, -16, 1.2, 4, -8
c1ccc2[nH]c(CCN3CCCCC3)nc2c1
→ -24, 8, x, 0.2, -1, -5
Cc1ccc2c(c1)c(=O)c1c3n2CCN(CC2CO2)C3CC1 (stereo not drawn)
→ 9, 14, 3, 0.8, -17, 0
CCOP(=O)(OCC)c1cc(C)c(O)c(C(C)(C)C)c1
→ -10, 1, -3, 0.9, -1, 3
COc1ccc(N2CCN(C(CNC(=O)Oc3ccccc3)c3cccnc3)CC2)cc1 (stereo not drawn)
→ 7, -4, 8, 0.2, -6, 7
Nc1ccc(Br)cc1C(=O)c1ccccc1
→ -4, -9, -1, 1.6, 1, 8
O=C(O)C1(c2ccc(Cl)cc2)CCC1
→ 10, 17, -25, -0.4, 6, 2
C#CCOC(=O)C1=CCCN(C)C1
→ -11, 0, 2, 0.3, -4, -16

Further entries follow:
SMILES | D2 PAM | Six1-Eya2 blk | TRPV1 potentiator | TRPML1 agonist | TRPML1 inh | CtBP-E1A inh
CC(C)C1(C)N=C(c2ncccc2C(=O)O)NC1=O (stereo not drawn) | 9 | -11 | -26 | 0.3 | 16 | 8
Nc1ccccc1Cl | -5 | 1 | -12 | -0.3 | -6 | 8
COC(=O)CC(=O)c1ccc2c(c1)OCO2 | 1 | 0 | x | -0.5&0.7 | 3&2 | 2
O=C1NC(=S)SC1=Cc1ccc(N(CCCl)CCCl)cc1 | -10 | -12 | x | u | 15 | -6
CN(c1ccc(OCC(=O)N2CCN(C/C=C/c3ccccc3)CC2)cc1)S(=O)(=O)c1cccs1 | -7 | -8 | -12 | 0.7 | 51 | -8
COc1ccc(N2C(=O)/C(=C/C=C/c3ccccc3[N+](=O)[O-])C(=O)NC2=S)cc1 | -4 | -16 | 12 | -0.9 | -13 | -1
CCOC(C(=O)OCCCN(CC)CC)(c1ccccc1)c1ccccc1 | -24 | -2 | 2 | -0.6 | 3 | 13
COC(=O)C1=C(c2ccc(F)cc2F)C[C@@H]2CC[C@H]1N2C(=O)N1CCC(O)CC1 | -10 | 8 | -5 | 0.8 | -17 | -5
CC[C@H]1CN2CCC1C[C@@H]2[C@@H](O)c1ccnc2ccc(OC)cc12 (stereo partly drawn) | 1 | 25 | x | 2.0 | 2 | 0
CN1CCN(c2ccccc2N)CC1 | -14 | -1 | -14 | 1.6 | -5 | -2
CCOC(=O)[C@]12Cc3ccccc3[C@H]1N(C1CCCCC1)C(=O)c1cc(OC)ccc12 | x | -3 | x | -0.8 | x | -17
CN1CCN(C(=O)COc2ccc3ccccc3c2)CC1 | -8 | -1 | -9 | 1.8 | 51 | -6
CS(=O)(=O)CCN1CC2CCCC(C2)C1 | -12 | -1 | x | -0.2 | 17 | 0
O=C1NC(=O)N(c2ccccc2)C(=O)/C1=C/c1ccc([N+](=O)[O-])s1 | 0 | u | 8 | 3.3 | 13 | u
CCCCn1c(O)c(C=NCCN2CCCCC2)c(=O)[nH]c1=O | -6 | 9 | x | -0.5 | -15 | -2
C[C@]12CCC3[C@@H](CC[C@@H]4C[C@H](O)CC[C@]34C)[C@@H]1CCC2=O (stereo partly drawn) | -3 | 3 | -9 | 0.4 | 16 | 4
Cc1cc(C)n(-c2ccc(NN=C(C#N)C#N)cc2)n1 | -18 | 1 | -2 | 0.0 | 22 | x
COc1ccc(CNCCc2ccc3c(c2)OCO3)cc1Br | -27 | -10 | 7 | -0.6 | 2 | x
N#CCCn1cc(C(=O)Nc2ccccc2Br)c(-c2ccc([N+](=O)[O-])cc2)n1 | 1 | -6 | 4 | -0.3 | -6 | 8
Cc1c(Cl)cccc1N1C(=O)NC(=O)/C(=C\c2cc(C)n(-c3cccc(C(=O)O)c3C)c2C)C1=O | -5 | -9 | -1 | -0.4 | 1 | -23
C[C@]12CCC3C(C(=O)C[C@H]4C[C@@H](O)CC[C@]34C)C1CCC2=O (stereo partly drawn) | -4 | 6 | x | 0.5 | -10 | 0
CCOC(=O)C1(CCc2ccccc2)CCN(Cc2ccc(NC(C)=O)cc2)CC1 | -67 | 16 | -5 | 0.4 | -4 | x
O=P(O)(O)Cc1c(Cl)cccc1Cl | 0 | 1 | -14 | -0.5 | -14 | 11
COC(=O)N(c1ccccc1)P1(=S)OCCO1 | -9 | 1 | u | 0.8 | 3 | 9
CC(=O)C1CCC2C3C(N4CC4)CC4=CC(=O)CCC4(C)C3CCC12C (stereo not drawn) | -5 | -1 | x | -0.3 | 0 | 1
CCCCN1C(=O)/C(=C/c2ccc(N(C)C)cc2)C(=O)N(Cc2ccco2)C1=O | -4 | u | 5 | 0.2 | -8 | -4
Cc1cccc(C)c1-n1nnnc1C(C1CC1)N1CCC(n2c(=O)[nH]c3ccccc32)CC1 (stereo not drawn) | -3 | -4 | x | 0.0 | x | 5
CN1CCN(c2cn[nH]c(=O)c2Cl)CC1 | -18 | 1 | 21 | 0.0 | -5 | 12
COc1ccc(NC(c2ccccc2)P(=O)(Oc2ccccc2)Oc2ccccc2)cc1 (stereo not drawn) | -4 | -6 | 3 | 0.9 | -11 | x
COC(=O)C1=C(c2ccc(OC(F)(F)F)cc2)C[C@@H]2CC[C@H]1N2C(=O)NCCOc1ccccc1 | -10 | 8 | -5 | 1.8 | 0 | -25
Cc1cc(C)cc(-n2c(C)cc(/C=C3\C(=O)NC(=O)N(C)C3=O)c2C)c1 | 10 | 1 | 8 | 1.8 | 1 | 2
CCOC(=O)C1=Nc2ccccc2/C1=C\c1c(O)n(C)c(=O)n(C)c1=O | -4 | -3 | -2 | 0.4 | -9 | 0
Cc1ccsc1C(=O)C1CCCN(Cc2cccc(OCCO)c2)C1 (stereo not drawn) | -17 | 5 | 6 | 0.9 | 11 | 6
CC(=NCc1ccco1)c1c(O)n(C)c(=O)n(C)c1=O | -3 | -3 | -3 | 0.1 | -4 | 8
Cc1cc(/C=C2\C(=O)NC(=O)N(c3ccc(F)cc3)C2=O)c(C)n1-c1cccc(C(=O)O)c1 | 4 | -9 | 11 | -0.1 | -15 | 4
O=C(Cn1cc(C(=O)c2ccccc2)c2ccccc21)NCc1ccco1 | -16 | -3 | 4 | 0.9 | 9 | -6
CCN(CC)C(=O)c1ccc(NC(=O)c2ccc(-n3cncn3)c([N+](=O)[O-])c2)cc1 | 14 | 9 | -1 | 0.1 | 13 | -12
O=C1NC(=S)NC(=O)C1=Cc1ccc2c(c1)CCN2CCCCl | -24 | -29 | 16 | -0.4 | 32 | x

Compound activity from PubChem BioAssay.
